Arbovirus anti – blocks arbovirus infection | arbovirus infection cell-based antiviral screen | inhibition, % at 10 µM | 200,000 compounds, 0.37% hits;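 active = inhibition from about 30%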;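 note: bluetongue infection of BSR cells; cell survival read as ATP light after 72 h; 0% = infected wells without compound and 100% = uninfected wells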
Mtb betalactam – beta-lactam sensitization of Mtb H37Rv; AID 434955; 330,000 compounds, 0.27% hits; inhibition, % at 25 µM; M. tuberculosis H37Rv growth with meropenem, percent inhibition; hits of this screen are not shown here;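 active = about 74% or more and at least 40 points above the plate without the antibiotic, then above 30% in a dose series; inconclusive = first-round hits that could not be retested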;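 note: growth measured after seven days incubation then overnight dye step; 0% = bacteria only wells and 100% = bacteria with antibiotic; twin plates without the antibiotic show which effects depend on it; some results filed as inactive read as strong as hits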
YopH PTP inh – inhibitors of Yersinia enterocolitica YopH tyrosine phosphatase | fluorescence Ex485/Em525 | inhibition, %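 (about 10 µM by stock and volumes)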 | 140,000 compounds, 0.16% hits | AID 898;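 active = inhibition of 50% or more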;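 note: controls were vehicle for no effect and minimum signal wells for full effect; inactives centre near -20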
RecA splice inh – blocks M. tuberculosis RecA intein splicing. P9WHJ3. cell-free RecA intein splicing, fluorescence. inhibition, %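 (about 9 µM by stock and volumes)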. 290,000 compounds, 0.75% hits. AID 2221; in the data active = inhibition above about 30%; inconclusive = no clear call, values can overlap the other calls;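 note: 0% = vehicle wells and 100% = reference inhibitor control wells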
Target sequence (P9WHJ3 whole entry, looked up, canonical isoform): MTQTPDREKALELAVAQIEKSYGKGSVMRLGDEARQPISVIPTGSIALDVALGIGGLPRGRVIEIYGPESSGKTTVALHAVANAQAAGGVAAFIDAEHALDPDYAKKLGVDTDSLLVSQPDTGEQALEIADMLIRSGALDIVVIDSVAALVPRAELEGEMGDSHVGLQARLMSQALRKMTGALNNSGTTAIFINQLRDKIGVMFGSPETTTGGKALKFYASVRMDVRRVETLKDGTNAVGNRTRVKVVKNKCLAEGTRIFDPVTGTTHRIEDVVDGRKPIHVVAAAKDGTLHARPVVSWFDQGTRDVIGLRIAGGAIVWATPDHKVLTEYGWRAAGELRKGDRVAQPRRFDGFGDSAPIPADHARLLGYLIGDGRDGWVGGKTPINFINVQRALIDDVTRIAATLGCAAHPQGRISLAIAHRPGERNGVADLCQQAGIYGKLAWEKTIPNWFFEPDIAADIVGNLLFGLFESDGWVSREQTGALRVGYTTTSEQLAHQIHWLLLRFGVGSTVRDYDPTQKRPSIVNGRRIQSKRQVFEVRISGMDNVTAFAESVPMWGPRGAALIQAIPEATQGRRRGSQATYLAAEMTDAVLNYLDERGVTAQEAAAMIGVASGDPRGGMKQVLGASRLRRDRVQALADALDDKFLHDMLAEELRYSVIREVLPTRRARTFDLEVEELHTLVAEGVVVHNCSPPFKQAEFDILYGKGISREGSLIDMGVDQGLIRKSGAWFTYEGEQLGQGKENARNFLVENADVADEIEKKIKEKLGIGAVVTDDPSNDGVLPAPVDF
Mtb growth – M. tuberculosis H37Rv growth inhibitors, H37Rv strain (AID 1626); M. tuberculosis H37Rv growth inhibition; higher % means a stronger effect; one-dose inhibition, % at 10 µM; IC50 in µM for titrated hits; 220,000 compounds, 0.95% hits;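 active = confirmed in a dose series; inconclusive = inhibition above 80% but not taken into the dose series; inactive = below 80% or under 30% at every dose of the series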;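 note: bacteria incubated seven days before Alamar blue readout; 0% = bacteria only wells and 100% = bacteria with antibiotic wells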
Arbovirus anti repeat – second read-out of Arbovirus anti, no call of its own (marks repeat the call); inhibition, %; measured here: 10K subset replicate screen; many hits read low in the repeat;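 first of two repeat runs on a subset; 0% = infected and 100% = uninfected wells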
An asterisk follows results filed as active; ? = inconclusive; · = not tested or not shown. Some of the compounds tested; count on the stated rates, not on these rows.

SMILES	Arbovirus anti	Mtb betalactam	YopH PTP inh	RecA splice inh	Mtb growth	others
Cc1cc2occ(CC(=O)NC3CCCc4ccccc43)c2cc1C (stereo not drawn)	-1	-6	-19	1.7	7%
CC1=NN(C(C#N)c2cccc([N+](=O)[O-])c2)C(C)(C)C1 (stereo not drawn)	-3	-5	-13	4.8	-2%
COc1cccc(C2CC(=O)N3CN(c4ccccc4F)CSC3=C2C#N)c1 (stereo not drawn)	3	3	-38	8.2	-6%	Arbovirus anti repeat=2
Cc1ccc(S(=O)(=O)N2CCOCC2)cc1C(=O)N(Cc1nnc(-c2ccccc2Cl)o1)C1CC1	·	-9	·	0.7	·
O=C(Nc1ccc(N2CCOCC2)cc1)c1ccc(S(=O)(=O)NCc2ccco2)cc1	·	3	·	-2.1	4%
O=C(CSc1nnc(COc2cccc3cccnc23)o1)N1CCCC1	-4	-7	·	-1.0	-5%
NNC(=O)c1ccc(Cn2cc(Br)cn2)o1	·	-1	·	1.4	-4%
COCCN1C=C(C(=O)OC)C(c2ccccc2C(F)(F)F)C(C(=O)OC)=C1	1	?	-5	-95	·
FC(F)(F)c1cc(C(F)(F)F)n2nc(-c3sccc3-n3cccc3)cc2n1	-9	-20	1	0.3	-7%
COc1ccc(CNC(=O)Cn2nc(Cc3cccnc3)c3ccccc3c2=O)cc1	8	-2	-41	-1.6	-10%
COc1cc2c(cc1OC)C(C)N(C(=O)c1c(C)noc1C)CC2 (stereo not drawn)	·	-7	·	0.1	-12%
Cc1cc(=O)n2[nH]c(-c3ccsc3-n3c(C)ccc3C)cc2n1	·	0	·	8.3	6%
CC(=O)c1c(C)[nH]c(C(=O)COC(=O)CCCOc2ccccc2)c1C	6	-5	·	-3.3	1%
O=C(Oc1ccccc1[N+](=O)[O-])c1cccnc1	9	1	-41	1.5	·
C/C(=C\C(=O)c1ccc(Cl)s1)N(C)C	-1	-2	·	1.7	8%
CCNC(=S)N1CCN(S(=O)(=O)/C=C/c2ccccc2)CC1	·	3	·	-2.1	·
Cc1ccc(-n2c(C)cc(C(=O)COc3cccnc3[N+](=O)[O-])c2C)cc1	-5	-4	-4	-1.6	5%
O=C(Nc1cccnc1Oc1ccc(Cl)cc1)c1cccc2ccccc12	·	43	·	14	0%
Cc1cc(C)cc(Oc2ncnc3c2ncn3Cc2c(Cl)cccc2Cl)c1	7	33	-7	11	14%
Cc1cccc(-c2noc(CN(C(C)C)S(=O)(=O)c3ccc(F)cc3)n2)c1	4	-5	-32	1.4	24%
COC(=O)C1(C(O)C(=O)c2ccc(C)cc2C)CCCCC1 (stereo not drawn)	-2	-5	-22	1.2	-3%
Clc1cccc(-c2nnc(SCc3nc4ccccc4[nH]3)n2Cc2ccco2)c1	-7	13	14	6.9	0%
Cc1c(C(=O)Nc2ccccc2Cl)oc2ccc(S(=O)(=O)N3CCC4(CC3)OCCO4)cc12	5	-1	-35	-1.3	2%
CCNc1nc(NCC)n2c(SCc3nc4ccccc4c(=O)[nH]3)nnc2n1	9	-7	-8	-0.8	-5%
NC(=O)c1ccc(NCC2COc3ccccc3O2)c([N+](=O)[O-])c1 (stereo not drawn)	1	0	·	3.1	-2%
COCCc1nc2ccc(C(=O)N(C)Cc3cccc(-n4cccn4)c3)cc2o1	·	-12	·	0.1	·
O=C(/C=C/c1cc([N+](=O)[O-])ccc1OC(F)F)Nc1ccc(OC(F)F)cc1	-9	-12	·	12	1%
COCCNC(=O)CSc1c2c(nc3ccc(Cl)cc13)CCCC2	9	33	·	22	1%
Cc1cc(C)nc(N2CCC(C(=O)NCc3ccccc3)CC2)n1	-4	0	-24	0.0	-7%
O=C(Nc1nnc(SCc2ccc(Cl)cc2)s1)C1CCCO1 (stereo not drawn)	8	-5	-21	1.5	3%
COc1ccc(/C=C/C(=O)N2CCN(c3ccccn3)CC2)cc1OC	·	0	·	-1.9	·
Cc1cccc(N2CCN(C(=O)CC(NC(=O)c3ccccc3Cl)c3ccccc3)CC2)c1C (stereo not drawn)	-27	4	-15	16	7%
CCOC(=O)c1sc(=S)n(Cc2ccccc2)c1N	-21	-9	-14	-4.2	-4%
Cc1ccc(C)c(OCCn2nnc3ccccc32)c1	·	8	·	1.4	·
Clc1ccc(-c2noc(CCCc3ccccc3)n2)cc1	8	-9	8	5.1	4%
Cc1oc(C(C)(C)C)cc1C(=O)Nc1ccc(C(=O)O)cc1	15	-12	-14	0.1	2%	Arbovirus anti repeat=18
CN1C(=O)C2(c3ccccc31)N(C)CC(c1ccccn1)C21SC(=S)N(Cc2ccco2)C1=O (stereo not drawn)	-9	3	-17	4.7	-5%
Cc1ccc(-n2c(CNc3cccc(Cl)c3)n[nH]c2=S)cc1	11	-4	·	2.4	11%
COc1ccc(CNC(=O)COC(=O)/C=C/c2cccc(Br)c2)cc1OC	-1	3	·	-0.8	-2%
Cc1ccc(N=C2SC(C(=O)NCCc3ccccc3)CC(=O)N2C)cc1C (stereo not drawn)	-2	0	·	-4.2	7%
Cc1ccc(CCNC(=O)NC(C)(C)C)cc1	4	4	-16	2.5	6%
COc1ccc(C(=O)Nc2ccc(-c3nnn(CC(=O)N4CCN(C(=O)c5ccco5)CC4)n3)cc2)cc1	-3	-6	·	-1.6	-5%
CCOc1ccc2[nH]c(=O)c(CN(Cc3ccccc3OC)C(=O)c3ccccc3)cc2c1	-26	?	-16	-1.9	-2%
O=C(CSc1nnc(-c2ccncc2)n1Cc1ccco1)OC1CCCCC1	2	-7	-33	0.2	0%
CN1CCN(C(=S)c2cn(Cc3ccc(Br)cc3)c3ccccc23)CC1	-9	15	·	7.1	5%
COc1ccc(CCNC(=O)CCS(=O)(=O)c2ccc3c(c2)NC(=O)C(C)S3)cc1OC (stereo not drawn)	·	-1	·	-0.8	·
O=C(COC(=O)CN1C(=O)NC2(CCCC2)C1=O)Nc1c(Cl)cccc1C(F)(F)F	·	-6	·	-1.3	·
CCOC(=O)c1ccccc1NC(=O)COc1coc(CN2CCc3ccccc32)cc1=O	·	73	·	-1.3	·
NC(=O)C1(N2CCCCC2)CCN(c2ccc3nnc(-c4ccccc4)n3n2)CC1	-13	-2	-50	1.3	6%
Cc1cc(CNC(=O)COC(=O)Cn2[nH]c(=O)c3ccccc3c2=O)cc(C)c1O	·	0	·	-2.3	·
CC1Cc2ccccc2N1C(=O)CN1CCN(Cc2ccccc2)CC1 (stereo not drawn)	·	-13	·	-1.6	·
O=C(c1ccco1)N1CCN(C2CC(=O)N(c3ccccc3)C2=O)CC1 (stereo not drawn)	10	7	-12	0.4	-9%
O=S(=O)(c1ccccc1F)N1CCC(Oc2ccc(-n3cnnn3)cc2)CC1	·	0	·	5.9	·
FC(F)(F)COc1ccc(-c2nnc(SCc3c(Cl)cccc3Cl)o2)cn1	·	-4	·	0.1	-5%
CCOC(=O)c1[nH]c(CSc2nnnn2-c2ccccc2C)c(C(=O)OCC)c1C	6	-8	-44	·	-3%
CC(=O)N(C)c1ccc(NC(=O)Nc2ccccc2C)cc1	-1	-3	·	-0.1	3%
N#Cc1c(NCCN)nc(-c2ccccc2)c2c1CCCC2	-26	-12	-15	4.1	7%
CC(=O)CSc1nnc(-c2ccco2)n1-c1ccccc1	·	-3	·	-1.4	·
O=C(Nc1cc([N+](=O)[O-])ccc1Cl)C1CC1	0	-1	-21	-0.3	2%
CCCC1(c2ccccc2)NC(=O)NC1=O (stereo not drawn)	·	7	·	3.1	·

3 successive compounds already listed, quoted:
SMILES	Arbovirus anti	Mtb betalactam	YopH PTP inh	RecA splice inh	Mtb growth	others
Cc1cc2occ(CC(=O)NC3CCCc4ccccc43)c2cc1C (stereo not drawn)	-1	-6	-19	1.7	7%
CC1=NN(C(C#N)c2cccc([N+](=O)[O-])c2)C(C)(C)C1 (stereo not drawn)	-3	-5	-13	4.8	-2%
COc1cccc(C2CC(=O)N3CN(c4ccccc4F)CSC3=C2C#N)c1 (stereo not drawn)	3	3	-38	8.2	-6%	Arbovirus anti repeat=2

The main list resumes, repeating the three entries before the break.
SMILES	Arbovirus anti	Mtb betalactam	YopH PTP inh	RecA splice inh	Mtb growth	others
CC(=O)CSc1nnc(-c2ccco2)n1-c1ccccc1	·	-3	·	-1.4	·
O=C(Nc1cc([N+](=O)[O-])ccc1Cl)C1CC1	0	-1	-21	-0.3	2%
CCCC1(c2ccccc2)NC(=O)NC1=O (stereo not drawn)	·	7	·	3.1	·
COc1ccc(OC(=O)c2ccncc2)cc1	-7	-9	-46	-2.7	-6%
COc1ccc(C(=O)CCN2CCc3cc(OC)c(OC)cc3C2)cc1	-5	97	·	-1.4	-7%
CC1CC(C)CN(C(=O)c2cc3cc(Br)cc(Br)c3o2)C1 (stereo not drawn)	-39	16	·	25	23%
CCN(c1ccccc1)S(=O)(=O)c1ccc(C(=O)OC(C)C(=O)NCCC2=CCCCC2)cc1 (stereo not drawn)	-3	8	-10	3.0	1%
COC(=O)c1ccc(C2C(C(=O)OCC(C)C)=C(C)N=C3SCCC(=O)N32)cc1 (stereo not drawn)	6	-5	-28	-17	-6%
O=C(NC1CCCCCC1)c1ccc(CS(=O)Cc2cccc(Cl)c2)o1 (stereo not drawn)	·	-4	·	-2.4	·
COc1ccc(N(CC(=O)N/N=C/c2ccc(-c3ccc([N+](=O)[O-])cc3)o2)S(=O)(=O)c2ccc(C)cc2)cc1	1	91	-17	-11	?
COc1ccc(/C=C/C(=O)O)cc1S(=O)(=O)N1CCc2ccccc21	·	5	·	-0.5	·
Oc1ccc2ccccc2c1/C=N/c1nc2c(s1)CCCC2	1	14	-22	2.4	-10%
O=C(CN(C(=O)c1csnn1)c1cccc2c1CCCC2)NC1CCCC1	-2	-8	·	-1.3	0%
CCN1CCN(c2cc(C)c3cc(NC(=O)c4cccs4)ccc3n2)CC1	·	71	·	-0.3	7%
Cn1ncc2cc(NC(=S)NC(=O)c3ccccc3)ccc21	0	-13	-34	-3.9	-7%
CCOC(=O)N1CCN(c2c(NCCN3CCN(Cc4ccccc4)CC3)c(=O)c2=O)CC1	2	-1	-50	0.9	-6%
Clc1ccc(C2[C@H]3CN(Cc4cccnc4)[C@H](c4ccccc4)C34CC2(c2cccnc2)C4)cn1 (stereo partly drawn)	·	88	·	13	18%
C=CCNC(=O)c1ccc(OC)cc1	·	5	·	0.3	-4%
Clc1ccc(-c2nnc3sc(-c4ccc(Br)o4)nn23)c(Cl)c1	-4	-8	-28	-2.5	·
CC(C)Oc1ccc(N2CC(C(=O)Nc3ccccn3)CC2=O)cc1 (stereo not drawn)	2	43	·	0.1	-6%
CCOC(=O)CC(C#N)c1cn(C)c2ccccc12 (stereo not drawn)	1	-5	7	2.5	-4%
CCCNC(=O)N1c2ccccc2Sc2ccccc21	·	-4	·	1.7	-11%
CCOC(=O)CN1C(=O)C2Cc3ccccc3CN2C1=S (stereo not drawn)	-9	2	-26	1.8	2%
O=c1oc(-c2ccccc2Cl)nc2ccsc12	-9	97	-3	35*	10%
CCCCNC(=O)CCCCn1c(=S)[nH]c2c([nH]c3ccc(OC)cc32)c1=O	-3	2	·	-3.2	-1%
CC(=O)N1CCN(S(=O)(=O)c2cccc(C(=O)Nc3nc4ccccc4[nH]3)c2)CC1	8	-12	-41	0.6	7%
COCCn1c(SCC(=O)c2[nH]c(C)c(C(C)=O)c2C)nc2ccccc2c1=O	·	0	·	1.5	-8%
CCOC(=O)C1(Cc2ccccc2C)CCCN(C(=O)CCc2c(C)noc2C)C1 (stereo not drawn)	·	-1	·	1.3	·
CCc1nc2c(sc3nc4c(cc32)COC(C)(C)C4)c(=O)n1Cc1ccco1	13	53	-1	5.4	15%
CCN(CC)CCCN1CC(O)=C(c2nc3ccccc3s2)C1=N	-39	7	-10	0.2	-1%
CCn1c(/C=C/c2ccc(O)c(O)c2)nc2ccccc2c1=O	·	1	·	-4.3	·
Cc1ccc(C)c(N2CCN(C(=O)C34CC5CC(C3)CC(n3nnc(C)n3)(C5)C4)CC2)c1	·	65	·	12	9%
O=C(Cc1ccccc1)N1CCN=C1SCc1ccc([N+](=O)[O-])cc1	-3	6	-19	15	23%
N#C/C(=C\C=C\c1ccccc1)c1nc(-c2ccc3c(c2)OCO3)cs1	-9	56	-23	-3.4	3%
COc1ccc(CNc2ccc3c(c2)nc(C)n3C)cc1	5	-3	-36	1.0	-22%
COc1ccccc1N(C)S(=O)(=O)c1ccc(C(=O)NCc2ccc3c(c2)OCO3)cc1	-7	-12	·	4.4	10%

Screens from PubChem.
